AID504770: E. coli YBA685 growth inhibition, screen for V. cholerae RctB inhibitors. AID 504770. E. coli YBA685 rctB-dependent plasmid, OD600 growth, 3 h; active compounds read low. z-score (concentration not given with the values). actives 0.27% (n = 130,000);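 active means z-score under -2 on both plates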;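 further: wells of about 30 µL received 100 nL stock; score is relative to mean and SD of the test wells; the first replicate is given; strong numbers were not always called active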
Ba CapD inh: CapD enzyme inhibition; purified CapD enzyme, fluorescence intensity read-out; active compounds read low; some hits fall short of the stated cut; actives 0.23% (n = 140,000); z-score (no concentration beside the values); AID 492967;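 active means z-score under -4 in either of two replicates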;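 further: stock transfer was 100 nL into about 40 µL; score is relative to mean and spread of the plate; one replicate is shown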
Active calls of the source: *; i = inactive; . = not tested or not shown; & = joins results of further samples. Some of the compounds tested. The share of hits here may be higher or lower than overall.

SMILES	AID504770	Ba CapD inh
Cc1onc(-c2c(F)cccc2Cl)c1C(=O)ONC(=O)c1ccccc1	1.5	0.19
O=C(O)C1C2C=CC3(CN(Cc4ccncc4)C(=O)C13)O2 (stereo not given)	-0.2	0.23
O=S(=O)(c1ccc2c(c1)CCO2)N1CCN(c2ccc(F)cc2)CC1	1.9	0.77
CC1=C(C#N)C(c2ccc(Br)cc2)C2=C(CCCC2=O)N1 (stereo not given)	1.6	72
Cc1nc(/C(N)=N/OC(=O)c2c(-c3ccccc3Cl)noc2C)cs1	0.65	0.005
O=c1oc(-c2ccc(-c3ccccc3)cc2)nc2ccccc12	-0.35	1.5
COc1ccc(C2CC(=O)C3=C(C2)Nc2ccccc2NC3c2ccc(OC(C)=O)c(OC)c2)cc1OC (stereo not given)	.	-1.6
COC(=O)c1ccccc1NC(=O)COC(=O)C1=NNC(=O)CC1	0.55	.
Cc1c(CC(Cl)(Cl)Cl)c2c(n1-c1ccc(F)cc1F)CC(C)(C)CC2=O	.	-0.03
O=S(=O)(NCc1ccccn1)C1=Cc2ccccc2CC1	0	.
O=C(CNC(=S)N1CC2CC(C1)c1cccc(=O)n1C2)N1CCCC1 (stereo not given)	0.85	1
Cc1nn(C)c(Oc2cccc(Cl)c2)c1C(=O)O	1.2	-0.14
COc1ccc(-c2c(C)nn3c(N4CCC(C)CC4)cc(C)nc23)cc1OC	-1.8	0.29
NC1=NN=C2CCCN3C(=C12)C=Cc1ccccc13	-1.1	.
NOCC(=O)N1CCOCC1	-0.85	-0.45
O=C1Nc2ccccc2SC1Nc1ccc(-c2nnc3n2CCCCC3)cc1 (stereo not given)	-0.35	.
O=C(CSCc1cc(=O)[nH]c(=O)[nH]1)NCc1ccc(Cl)cc1	0.15	.
CC(C)c1ccc(/C=C/C(=O)CCC(=O)O)cc1	-0.55	-0.3
COC(=O)c1ccc(CS(=O)(=O)c2ccccc2C)o1	-0.2	-1.5
c1ccc2[nH]c(C3CCCN3)nc2c1 (stereo not given)	-0.4	-0.36

Reformatted field by field: part of the list above
COC(=O)c1ccccc1NC(=O)COC(=O)C1=NNC(=O)CC1
  AID504770 = 0.55 | Ba CapD inh = .
Cc1c(CC(Cl)(Cl)Cl)c2c(n1-c1ccc(F)cc1F)CC(C)(C)CC2=O
  AID504770 = . | Ba CapD inh = -0.03
O=S(=O)(NCc1ccccn1)C1=Cc2ccccc2CC1
  AID504770 = 0 | Ba CapD inh = .
O=C(CNC(=S)N1CC2CC(C1)c1cccc(=O)n1C2)N1CCCC1 (stereo not given)
  AID504770 = 0.85 | Ba CapD inh = 1

Next compounds follow:
SMILES	AID504770	Ba CapD inh
CSC1=NCCN1S(C)(=O)=O	-0.45	-0.69
O=C(OCc1cc(-c2ccc(Cl)c(Cl)c2)on1)c1cccs1	.	-0.26
O=c1oc2ccccc2cc1-c1nnc(-c2cccc(Br)c2)o1	-0.3	-0.27
CC1=C(C(=O)OC2CCCCCC2)C(c2cc3c(cc2Br)OCO3)NC(=O)N1 (stereo not given)	.	-0.4
COc1ccc2c(c1)sc1nc(=O)ccn12	0	3.2
C=CCN(C(=O)COc1ccccc1)c1nnc(-c2ccncc2)s1	0.5	8.4
CS(=O)(=O)c1ccc2nc(NC(=O)c3ccc(C(=O)c4ccccc4)cc3)sc2c1	-0.7	i
O=C1C=CC(=O)N1CCc1ccc(Cl)cc1	-1.8	0.32
O=C(CN(c1cc(C(F)(F)F)ccc1Cl)S(=O)(=O)c1ccccc1)Nc1ccc2c(c1)OCO2	.	0.26
O=C(c1cccc(C(F)(F)F)c1)c1cc2cc(Cl)ccc2oc1=O	-0.65	-0.22
CCOC(=O)N1CCN(C(=O)CNC(=O)c2cc(C)cc(C)c2)CC1	0.1	.
COc1cccc(-c2nc3ccccc3c(=O)n2NC(=O)Cn2nc(C)c([N+](=O)[O-])c2C)c1	.	-0.23
CN(C(=O)CSc1nc2ccccc2c(=O)n1-c1ccc(F)cc1)C1CCS(=O)(=O)C1 (stereo not given)	0.8	.
Cc1ccc(C(=O)N2CCN(S(=O)(=O)c3ccc(Br)s3)CC2)cc1	.	0.04
O=C(c1cccc(C(F)(F)F)c1)N1CCC(c2c[nH]c3ccccc23)CC1	.	-0.5
CCCSc1nnc2c(n1)OC(c1cc(Br)ccc1OC)Nc1ccccc1-2 (stereo not given)	.	-0.14
COc1cccc(C2=NOC(C(=O)N3CCCCC3)C2)c1 (stereo not given)	-0.5	-0.34
[O-]/[N+](=C\c1ccncc1)c1ccccc1	-0.85	.
Cc1nc2ccc(NC(=O)[C@@H]3CCCN3S(=O)(=O)c3ccc4c(c3)OCCO4)cc2s1	-0.55	.
Cc1nc(COc2ccc(/C(N)=N/O)cc2)cs1	.	0.36
COC(=O)c1ccc(COC(=O)c2ccccc2NC(=O)Cc2ccccc2)o1	0.5	.
CCn1c(COc2ccccc2)nnc1SCC(=O)CC(=O)Nc1ccccc1OC	-0.05	.
O=S(=O)(/C=C/c1ccc(Cl)cc1Cl)NCc1cccs1	-0.25	0.26
CCC(C)NC(=O)CSc1nc2ccc(C(C)C)cc2cc1C#N (stereo not given)	-0.65	.
Cc1ccc(S(=O)(=O)Nc2cc(C(C)(C)C)sc2C(N)=O)cc1	-0.2	0.29
CC1CCc2cc(F)ccc2N1S(=O)(=O)c1ccc(N2CCCCS2(=O)=O)cc1 (stereo not given)	-0.9	0.64
CC1Cc2ccccc2N1C(=O)COC(=O)c1ccc(S(=O)(=O)N2CCCC2)cc1 (stereo not given)	-1.2	.
COc1ccc2ccccc2c1CN1CCN(S(=O)(=O)c2ccccc2Br)CC1	.	-0.78
Fc1ccc(-c2csc(-c3ccc(-c4cccs4)s3)n2)cc1F	-0.45	18
CCOC(=O)c1cc(C)nn1-c1ccccc1	-0.4	0.38
Cc1ccc(-c2csc(N3CCC(C(N)=O)(N4CCCCC4)CC3)n2)cc1	0.9	0.94
O=C(Cc1ccsc1)OCc1nc2ccccc2s1	-0.95	.
COCc1c(C(=O)OCC(=O)c2ccc(Br)s2)oc2ccccc12	0.55	.
O=C1CN=C(c2ccc(F)cc2)c2cc(Br)ccc2N1	0.6	.
CCCCOC(=O)c1ccc(NC(=O)C2COc3ccccc3O2)cc1 (stereo not given)	.	-0.075
CCOC(=O)c1cc(C)sc1NC(=O)c1ccc(C)cc1	-1.4	20
FC(F)(F)c1cccc(-n2nnnc2C2(N3CCOCC3)CCCCC2)c1	.	-0.7
Cc1cc2c(cc1S(=O)(=O)C(C)CC(=O)N(C)Cc1ccccc1)OCC(=O)N2 (stereo not given)	-0.2	-0.28
COc1ccc(C2=Nc3ccccc3N=C(c3ccccc3)C2)c(O)c1	.	-0.31
CC1(C)Oc2ccc3ccc(=O)oc3c2/C(=C/O)C1=O	0.65	4.4

Part of the list above in order of molar mass, smallest number first.
SMILES	AID504770	Ba CapD inh
CCC(C)NC(=O)CSc1nc2ccc(C(C)C)cc2cc1C#N (stereo not given)	-0.65	.
Cc1ccc(S(=O)(=O)Nc2cc(C(C)(C)C)sc2C(N)=O)cc1	-0.2	0.29
Fc1ccc(-c2csc(-c3ccc(-c4cccs4)s3)n2)cc1F	-0.45	18

Next results follow:
SMILES	AID504770	Ba CapD inh
COc1ccccc1N1CCN(C(=O)C(C)Nc2ccccn2)CC1 (stereo not given)	.	0.17
Cc1cc(-c2ccc(S(=O)(=O)NC(C)(C)C)s2)n[nH]1	-1.1	0.2
COc1ccc(CC(=O)OCC(=O)Nc2cc(C)ccc2C)cc1	1.5	-0.49
CN1CCc2cccc3c2[C@H]1Cc1ccc(O)c(O)c1-3	.	0.76
CCOC(=O)c1cnc2c(C)c(C)ccc2c1NCCCN(C)C	-0.6	6.6
O=c1[nH]c(=S)[nH]c2c1cnn2-c1ccccc1	0.4	.
CCCc1ccc(-c2c(C)sc(N)c2C#N)cc1	1.3	0.49
CCCCOc1ccc(NC(=O)CCC)cc1	-0.75	0.005
COC(=O)NCCOc1nc(N(C)C)nc(N(C)C)n1	-0.3	-0.79
Cc1cccn2c(=O)c(/C=C3\SC(=S)N(CCc4ccccc4)C3=O)c(N3CCOCC3)nc12	.	0.17
O=C(NCCCO)Nc1ccc(Cl)cc1	-0.3	.
CCOC(=O)CN(c1ccccc1)S(=O)(=O)c1ccc(Cl)cc1	.	-0.49
CCC(C)N(C)Cc1cccc(C2(O)CCN(S(=O)(=O)c3ccc(OC)c(OC)c3)CC2)c1 (stereo not given)	1.4	-0.005
O=C(O)CSc1ccc(Br)c2cccc(Cl)c12	-0.65	1.4
CC12CCC(C(=O)N(c3cccc4ccccc34)C1=O)C2(C)C (stereo not given)	.	0.62
Nc1ccc(OCCN2CCCCC2)cc1	0.15	.
CN(Cc1nnc(-c2ccccc2)o1)C1CCCCC1	-0.4	0.48
FC(F)(F)c1cc(N2CCCC2)cc(C(F)(F)F)c1	.	0.91
CC1(C)CSC(=NC2CCCCC2)N1	1.1&-0.4	-0.33&0.81
Cc1cc2cc(CNC(=O)C(C)C)ccc2[nH]1	1.2	0.71
O=C(Cn1c(=O)oc2ccccc21)NCc1ccccc1	0.15	.
NC(=S)Nc1ccc(S(N)(=O)=O)cc1	0.55	0.2
COc1cccc(C2Nc3ccccc3NC3=C2C(=O)CCC3)c1 (stereo not given)	-0.1	-2.3
Cc1nc2cc(C(=O)NCc3ccc(F)cc3)ccc2n1-c1cccc(F)c1	.	-0.34
O=C(Nc1ccc(-c2cn3c(n2)SCC3)cc1)c1ccc2nonc2c1	0.4	0.73
Cc1c(Cl)c(C(F)(F)F)nn1CCCNC(=O)C1CCCC1	-0.35	-0.2
COc1ccc(C(=O)NCC(=O)N/N=C/c2ccc([N+](=O)[O-])s2)cc1	.	-1.4
CC(C)(C)NC(=S)N/N=C/c1cccnc1	.	-0.72
CC(=O)Nc1nc2c(c(-c3ccccc3)c1C#N)CCCCC2	-0.35	2.9
O=C(c1ccc2c(c1)N(Cc1ccc(F)cc1)CCS2)N1CCOCC1	-0.2	49
COC(=O)C1=C(C)NC2=C(C(=O)CCC2)C1c1ccc(C(=O)O)cc1 (stereo not given)	2.1	15
O=C(Nc1ccc(Cl)cc1)OCN1C(=O)c2ccccc2C1=O	-0.25	-0.89
O=C(NNc1ncnc2ccccc12)c1ccncc1	0.6	.
CC1(C)CCc2cc(S(=O)(=O)NCc3ccc(S(N)(=O)=O)cc3)ccc2O1	-0.6	0.92
COc1ccc(CNCc2ccc(N(C)C)cc2)cc1	-0.7	0.59
c1ccc(-c2ccccn2)nc1	-2.5	-0.33
O=C(NCC1CCCO1)c1cc2cc(Br)ccc2oc1=O (stereo not given)	-0.15	0.41
C=C1Cn2c(nc3sc(C)c(C)c3c2=O)S1	0.15	0.65
COc1ccccc1N1CCN(c2nc(-c3cccnc3)nc3ccccc23)CC1	0.25	.
Cc1ccc(NC(=O)C2OC3OC(C)(C)OC3C3OC(C)(C)OC23)cc1Cl (stereo not given)	.	-0.3

In the list so far, two contain a nitro group on carbon.
SMILES	AID504770	Ba CapD inh
COc1cccc(-c2nc3ccccc3c(=O)n2NC(=O)Cn2nc(C)c([N+](=O)[O-])c2C)c1	.	-0.23
COc1ccc(C(=O)NCC(=O)N/N=C/c2ccc([N+](=O)[O-])s2)cc1	.	-1.4

Later entries:
SMILES	AID504770	Ba CapD inh
Cc1nn(CC(=O)N(C(C)C)C(C)C)c(C)c1S(=O)(=O)NC(C)(C)C	1.2	.
Cc1ccccc1NC(=O)c1c(NC(=O)c2cccnc2)sc2c1CCCCC2	.	-0.23
COc1ccc(Nc2nnns2)cc1	-0.65	0.005
COc1ccc(CN(Cc2ccccc2)Cc2nnnn2C(C)(C)C)cc1	-0.3	.
CC(NC(=O)C12CC3CC(CC(C3)C1)C2)C(=O)N(C)C (stereo not given)	1.7	-0.4
COc1ccc(NC(=O)COc2ccc3c(C#N)c4ccccn4c3c2)cc1	.	-0.35
CCOC(=O)C12CCC(C(=O)O)(CC1)CC2	-0.1	0.39
Cc1cc(NC(=O)c2cc3c(s2)-c2c(C)cccc2OC3)no1	-0.65	62
O=C(/C=C/c1cc2c(cc1Br)OCO2)Oc1ccc(F)cc1F	.	-0.08
CC(NCc1ccc(C(=O)O)s1)c1ccccc1 (stereo not given)	-1.5	-0.45
CCN(c1ccccc1)c1cc(C)nc2ncnn12	1.9	-1.1
CC(C)c1ccc(NC(=O)Cn2c(=O)oc3cccnc32)cc1	-0.45	14
COc1ccc(OC)c(Nc2nc3nonc3nc2N2CCCC(C)C2)c1 (stereo not given)	.	-0.46
COc1ccc(NC(=S)N(Cc2ccco2)Cc2cc3cc(C)c(C)cc3[nH]c2=O)cc1	1	.
CC(=O)Nc1ccc(S(=O)(=O)N2CCOC3CCCCC32)cc1 (stereo not given)	.	-0.24
O=C(NN1CCOCC1)C12CC3CC(CC(C3)C1)C2	-1.1	-0.29
Cc1cc(C)nc(NS(=O)(=O)c2ccc(NC(=O)CN3CC(=O)NC(=O)C3)cc2)n1	.	0.02
COc1ccc2cc(C(N)=O)/c(=N\NC(=O)c3ccccc3)oc2c1	-0.35	33
O=C(c1ccc(S(=O)(=O)N2CCCCCC2)cc1)N1CCN(c2ccccn2)CC1	0.35	0.28
COc1ccc(CCNC(=O)c2ccc3c(c2)ncn3-c2ccc(F)cc2F)cc1OC	.	1
COc1cc(OC)nc(OC(Cc2ccncn2)c2cccc(C(F)(F)F)c2)n1 (stereo not given)	.	-0.34
O=C(OCc1cccs1)c1ccc(-c2nc3ccccc3s2)s1	0.2	.
CC(C)n1c(SCc2ccc(F)cc2)nc2c1c(=O)n(C)c(=O)n2C	0.25	-0.045
CC(C)(C)c1ccc(OC(F)(F)C(=O)Nc2cc(Cl)cc(Cl)c2)cc1	.	0.32

Whole records as entered above. Order of screens: AID504770, Ba CapD inh
Results for O=S(=O)(/C=C/c1ccc(Cl)cc1Cl)NCc1cccs1 = -0.25, 0.26
Results for O=C(c1cccc(C(F)(F)F)c1)N1CCC(c2c[nH]c3ccccc23)CC1 = ., -0.5
Results for Cc1cccn2c(=O)c(/C=C3\SC(=S)N(CCc4ccccc4)C3=O)c(N3CCOCC3)nc12 = ., 0.17
Results for [O-]/[N+](=C\c1ccncc1)c1ccccc1 = -0.85, .
Results for CCOC(=O)CN(c1ccccc1)S(=O)(=O)c1ccc(Cl)cc1 = ., -0.49

From PubChem BioAssay
